Source: PubChem
HSV augment: enhancers of HSV replication in host cells, fold increase, host cell viability; HSV replication augmentation in cells; maximum fold increase; 220,000 tested, 0.005% active;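 active means peak rise of 1.5-fold or more in the series; tested in PC3 cells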;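 further: first round at 10 µM; read as green reporter fluorescence; hits show the peak of a series up to 25 µM; 1 = signal of infected wells without compound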
GALR2 ag: GALR2 receptor agonists, primary screen, cell-based; activation, %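 (tested at 5 µM)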; Galanin receptor type 2 (Homo sapiens), O43603; GALR2-expressing cells, agonist activation read-out; 140,000 tested, 0.48% active;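 active means above mean plus 3 SD of all compounds, about 5% in these data, not always enough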;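 further: 0% = vehicle buffer wells and 100% = reference agonist at full effect; tested in CHO reporter cells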
RGS16-Gao HTS: modulators of RGS16 binding to Galphao, primary screen, biochemical, human proteins, multiplexed bead flow cytometry; Regulator of G-protein signaling 16 (Homo sapiens) + Guanine nucleotide-binding protein …; bead-based flow cytometry RGS16-Galphao binding, fluorescence; actives lie on both sides; binding response (% of control), % at 10 µM; 220,000 tested, 0.38% active; AID 1441, 2008;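 active means below 25% or above 175%, edge rows of some plates excepted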;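 further: Galphao activated by GDP with aluminum fluoride before binding; 100% = wells without compound and 0% = beads without RGS; some results beyond the cut were filed as inactive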
Insulin prom inh: inhibitors of insulin promoter-driven GFP, primary screen, imaging, TRM-6 cells (human fetal islet line), eGFP reporter, cell count. inhibition, % at 2 µM. 130,000 tested, 0.9% active. reporter expression induced with tamoxifen. AID 1273, 2008;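 active means inhibition above the mean plus 3 SD, with well images judged a real hit on visual review, cut at about 60% in these data, passing the limit was not always enough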
PKD1 inh: inhibitors of human PKD1 kinase, biochemical, fluorescence polarization; PKD1 kinase fluorescence polarization assay; AID 797, 2007; inhibition, %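 (about 10 µM by stock and volumes)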; 200,000 tested, 0.056% active;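 active means inhibition of 50% or more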;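 further: controls were vehicle for no effect and a reference inhibitor for full effect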
Target sequence (Q15139 whole entry, looked up): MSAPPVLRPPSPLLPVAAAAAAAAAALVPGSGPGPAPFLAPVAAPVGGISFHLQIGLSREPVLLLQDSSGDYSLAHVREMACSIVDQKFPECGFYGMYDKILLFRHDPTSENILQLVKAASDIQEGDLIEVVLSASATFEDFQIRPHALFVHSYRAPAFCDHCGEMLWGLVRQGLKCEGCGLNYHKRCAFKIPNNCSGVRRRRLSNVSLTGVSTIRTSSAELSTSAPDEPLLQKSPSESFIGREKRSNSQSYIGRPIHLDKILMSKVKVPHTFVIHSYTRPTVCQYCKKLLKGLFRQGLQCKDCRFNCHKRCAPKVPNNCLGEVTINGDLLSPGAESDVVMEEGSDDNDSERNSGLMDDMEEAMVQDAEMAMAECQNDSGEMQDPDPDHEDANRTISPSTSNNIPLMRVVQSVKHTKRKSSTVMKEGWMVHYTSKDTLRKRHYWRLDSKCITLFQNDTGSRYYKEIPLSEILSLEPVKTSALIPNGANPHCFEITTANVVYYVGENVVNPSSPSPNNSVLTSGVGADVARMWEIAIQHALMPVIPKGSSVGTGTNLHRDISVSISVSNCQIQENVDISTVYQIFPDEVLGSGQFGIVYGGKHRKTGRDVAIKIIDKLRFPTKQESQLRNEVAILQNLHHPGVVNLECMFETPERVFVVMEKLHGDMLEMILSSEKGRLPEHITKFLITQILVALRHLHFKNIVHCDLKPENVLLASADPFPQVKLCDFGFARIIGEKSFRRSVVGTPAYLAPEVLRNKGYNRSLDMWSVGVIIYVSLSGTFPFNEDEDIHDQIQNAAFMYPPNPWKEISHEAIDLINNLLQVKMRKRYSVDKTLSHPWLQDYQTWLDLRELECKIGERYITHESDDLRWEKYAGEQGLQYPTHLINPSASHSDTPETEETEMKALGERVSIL
Insulin prom inh cell count: recorded beside Insulin prom inh, whose call it bears; normalized cell count, %; measured here: cell count, toxicity; reference of the scale not given here;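 cells exposed to compound for 48 h; stained nuclei by imaging scaled within each plate; lower means fewer cells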
HSV augment primary fold: further read-out of HSV augment, marked with its call; fold increase; compound at 10 µM; measured here: primary screen fold increase 10 uM; tested in PC3 cells;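 GFP signal in the first replicate; 1 = infected wells without compound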
The depositor's hits bear a star; i = inactive; / = not tested or not shown; & = joins results of further samples. Random draw from the library; about 1.3% have a hit in one of these screens.

SMILES	HSV augment	HSV augment primary fold	GALR2 ag	RGS16-Gao HTS	Insulin prom inh	Insulin prom inh cell count	PKD1 inh
Cc1ccccc1-n1c2nc(=O)n(C)c(=O)c-2cc2ccccc21	i	0.88	/	97	/	/	/
Cc1ccc(C(=O)N2CCN(c3ccccc3Cl)CC2)cc1[N+](=O)[O-]	i	1.1	/	84	/	/	-4
O=C(NC1CCCC1)c1cccc(Oc2ccccc2)c1	i	1	/	94	-15	99	-9
Cc1sc2ncn(CC(=O)N3CCCCC3)c(=O)c2c1C	i	0.85	/	103	/	/	9
O=C(SCC(O)C(O)CS)c1cccs1 (configuration not stated)	i	0.89	/	108	/	/	/
O=C(NCc1cccnc1)/C(=C/c1ccccc1)NC(=O)c1ccccc1	i	1	/	161	/	/	1
c1cncc(-c2nc(N3CCCCCC3)c3ccccc3n2)c1	/	/	0.7	102	/	/	-1
O=C(COC(=O)/C=C/c1cccc([N+](=O)[O-])c1)NCCCN1CCCC1=O	i	1.1	/	83	/	/	-1
COc1ccc2oc3ccc(OC)cc3c(=O)c2c1	i	0.93	-2.2	105	-145	136	6
CCCCN(CC)CCCNC(=O)c1cc2c(=O)n(C)c3ccccc3c2n1C	i	1.2	-1.1	97	/	/	-1
C/C(=N/NC(=O)Cc1cccn1C)c1ccccc1	/	/	-2.3	49	0	121	0
CCc1ccc(NC(=O)Cn2c(=O)n(CCC(=O)NC3CCN(Cc4ccccc4)CC3)c(=O)c3ccccc32)cc1	i	0.78	/	102	/	/	/
Cc1ccc(S(=O)(=O)N2CCN(C(=O)CCC(=O)OCC(=O)Nc3cccc(C#N)c3)CC2)cc1	i	0.9	-2.2	99	/	/	3
CC1(c2ccccc2)CC(C)(C)N2C(=O)/C(=C3\SC(=S)NC3=O)c3cccc1c32 (configuration not stated)	i	1.3	-2.1	95	31	86	5
CC1Cc2ccccc2N1C(=O)CN1CCc2ccccc2C1 (configuration not stated)	i	0.93	-0.7	109	15	80	-1
COc1ccccc1-n1c(-c2ccccc2)c[n+]2c1CCc1ccccc1-2	i	0.95&0.98	/	102&118	-100	47	-2&4
CC(=O)NS(=O)(=O)c1cccnc1Nc1cccc(Cl)c1	i	1.1	-2.3	370	-183	132	-2
Cc1ccc(NC(=S)N(Cc2ccc(Br)cc2)Cc2ccc(C(=O)O)cc2)cc1C	i	0.98	/	104	/	/	-4
Cc1ccccc1-n1nc(C)c2cc(C(=O)N3CCOCC3)sc21	i	0.99	-1.5	102	33	77	-19
COC(=O)c1sc(S(=O)(=O)Nc2ccc(Br)cc2)c(C(=O)OC)c1C	i	0.89	-1.7	91	12	60	4
O=C(Nc1ccc(S(=O)(=O)Nc2ncccn2)cc1)C1COc2ccccc2O1 (configuration not stated)	i	0.99	/	101	/	/	0
COC(=O)COC(=O)c1ccccc1NC(=O)c1ccccc1	i	0.95	0.1	100	-25	107	-1
COc1ccc(NS(=O)(=O)c2ccc(O)c(C(=O)OCC(=O)NC3CCCCC3)c2)cc1	i	0.88	/	97	/	/	2
CSc1nnc(-c2sc3cc(C(F)(F)F)cnc3c2-c2ccccc2)n1C	i	0.72	1.8	102	23	83	-9
O=C1CCCC2=C1C1(CCCCC1)N=C(Nc1nc3ccccc3s1)N2	i	0.91	-0.1	107	29	98	-9

Next entries
SMILES	HSV augment	HSV augment primary fold	GALR2 ag	RGS16-Gao HTS	Insulin prom inh	Insulin prom inh cell count	PKD1 inh
CC1=NN(C(C#N)c2ccc([N+](=O)[O-])cc2)C(C)(C)C1 (configuration not stated)	i	1.3	/	122	/	/	/
Cc1n[nH]c(=S)n1-c1ccccc1	i	1	/	97	/	/	/
O=C(Nc1cccc(F)c1)c1ccccc1	i	0.95	-2.1	96	27	84	-2
Cc1ccc(-c2nnc(SCC(=O)N/N=C/c3ccccc3C(=O)O)n2-c2ccc(Cl)cc2)cc1	i	1	/	102	/	/	/
CCn1c(=O)c(C(=O)CN2c3ccccc3CC2C)c(N)n(Cc2ccccc2)c1=O (configuration not stated)	i	1.1	0.2	100	/	/	-1
CCCCCCC(=O)N/N=C/c1ccc(Br)cc1	i	1	0.9	103	-41	101	-1
Cc1ccc(NC(=O)CCSCCc2ccccn2)cc1	i	0.9	/	101	/	/	7
CN(C)Cc1nnnn1-c1cccc(-n2nnnc2CN(C)C)c1	i	1.1	/	98	/	/	/
Cn1cnc2cc(NC(=O)c3cccs3)ccc21	i	1	/	85	-18	101	-6
Clc1cccc(-c2cc3nc4c(c(N5CCNCC5)n3n2)CCCC4)c1	i	0.78	-2.4	103	-24	140	-5
COc1cc(C2c3sc(=O)[nH]c3SC3C4CCC(C4)C23)ccc1O (configuration not stated)	i	1	-0.2	104	0	103	4
O=C(Nc1ccccc1N1CCN(c2ccccc2)CC1)c1ccccc1F	i	0.87	/	110	/	/	-6
O=C(NCC(=O)N(Cc1ccco1)C(C(=O)NC1CCCCC1)c1cccnc1)c1ccco1 (configuration not stated)	i	1	-1.8	106	/	/	-17
CCOCCOC(=O)c1[nH]c2c(c1C)C(=O)CC(c1ccc(N(C)C)cc1)C2 (configuration not stated)	i	1.2	-1.5	100	/	/	9
COc1ccc(OCC(O)CN2CCCCC2)cc1 (configuration not stated)	i	1.1	-3.0	104	/	/	-2
Cc1ccc(S(=O)(=O)Nc2ccc(Cl)cc2)cc1NC(=O)Cn1cnc2c1c(=O)n(C)c(=O)n2C	i	0.81	-2.1	99	18	71	-14
CCC(=O)N1CCN(c2ccc(OC)cc2[N+](=O)[O-])CC1	i	1	-1.8	102	-12	68	-1
C#CCOCCOCCOCCNc1nc(N2CCN(C(=O)[C@H]([C@@H](C)CC)n3cc([C@@H](N)CO)nn3)CC2)nc(N2CCN(C(=O)[C@H](Cc3ccc(O)cc3)n3cc([C@@H](N)C(C)CC)nn3)CC2)n1 (some centres not stated)	i	0.98	/	97	/	/	-4
O=[N+]([O-])c1ccc(C(=Nc2cccc3ccccc23)N2CCOCC2)cc1	i	0.96	-2.7	108	-71	103	-6
O=C(NCc1ccccc1)c1ccc(-c2ccc(F)cc2)o1	i	1	-0.9	98	6	141	-8
O=c1[nH][nH]c(=O)c2cc(N3CCCC3)ccc12	i	0.97	-1.1	101	/	/	5
c1ccc(CCCNCC2COc3ccccc3O2)cc1 (configuration not stated)	i	1.1	/	111	/	/	-13
Cc1ccccc1CSc1nnc(-c2ccccn2)n1C	i	1.2	/	112	/	/	/
O=C(COC(=O)C1(c2ccc(F)cc2)CCCC1)N1CCN(C(=O)c2ccco2)CC1	i	0.95	-1.6	96	-3	97	2
O=C(N/N=C/c1ccc([N+](=O)[O-])o1)c1cccc(S(=O)(=O)N2CCOCC2)c1	i	0.99	/	99	/	/	2

Another view of part of the listing above.
Screens in order – HSV augment | HSV augment primary fold | GALR2 ag | RGS16-Gao HTS | Insulin prom inh | Insulin prom inh cell count | PKD1 inh
CCC(=O)N1CCN(c2ccc(OC)cc2[N+](=O)[O-])CC1
  i | 1 | -1.8 | 102 | -12 | 68 | -1
C#CCOCCOCCOCCNc1nc(N2CCN(C(=O)[C@H]([C@@H](C)CC)n3cc([C@@H](N)CO)nn3)CC2)nc(N2CCN(C(=O)[C@H](Cc3ccc(O)cc3)n3cc([C@@H](N)C(C)CC)nn3)CC2)n1 (some centres not stated)
  i | 0.98 | / | 97 | / | / | -4

Next structures follow.
SMILES	HSV augment	HSV augment primary fold	GALR2 ag	RGS16-Gao HTS	Insulin prom inh	Insulin prom inh cell count	PKD1 inh
COCCNC(=O)CSc1nc2ccccc2c(=O)n1CC1CCCO1 (configuration not stated)	i	0.85	-1.5	94	/	/	-5
Cc1cccc(NC(=O)C2CC(=O)NC(Nc3nc4ccccc4s3)=N2)c1 (configuration not stated)	i	1.1	-2.1	103	/	/	5
O=C(COC(=O)c1ccccc1F)Nc1cc(S(=O)(=O)N2CCOCC2)ccc1N1CCCC1	i	0.98	/	98	/	/	-2
O=[N+]([O-])c1ccccc1S(=O)(=O)N1CCN(Cc2cc3c(cc2O)OCO3)CC1	i	0.98	/	104	/	/	2
COc1ccccc1C(=O)Nc1nnc(-c2ccc(Cl)cc2)o1	i	0.94	/	92	/	/	/
NC(=O)c1ccc(NC(=O)COc2ccc([N+](=O)[O-])cc2Cl)cc1	i	0.97	/	100	/	/	7
Cc1ccc(C(=O)CNc2cccc([N+](=O)[O-])c2)cc1	i	0.88	/	106	-45	171	4
CCN1C(=O)CC(N2CCC(Nc3ccc(OC)cc3)CC2)C1=O (configuration not stated)	i	0.96	-4.6	102	-12	191	-11
C=CCCCCCCCCc1nc(SCC(C)=O)n[nH]1	i	0.91	/	89	/	/	/
Cc1sc(NC(=O)C2CCCCC2)c(C#N)c1-c1ccccc1	/	/	-2.4	92	/	/	17
COc1cc(C(=O)Nc2nc3ccc4nc(C)sc4c3s2)cc(OC)c1OC	i	0.74	-1.2	104	-40	141	0
CCN(CC)CCn1c2ccc(F)cc2c2nc(C)sc21	/	/	-1.7	62	-85	103	0
CCOc1ccccc1NC(=S)N1CCCc2ccccc21	i	0.89	/	103	/	/	-5
Cc1nc2c3ccccc3nc(NNC(=O)CCC(=O)NC(C)C)n2n1	i	1.3	-0.1	4.1*	/	/	-3
O=C(COC(=O)c1ccc(O)cc1)Nc1nccs1	i	0.99	/	101	/	/	-2
COc1cc2nc(N(C)CCCNC(=O)C3CCCO3)nc(N)c2cc1OC (configuration not stated)	i	0.75	/	101	/	/	/
COc1ccccc1NC1=C(N2CCCCC2)C(=O)c2ccccc2C1=O	i	0.48	-1.0	1	/	/	-7
Cc1nc2ccc(S(=O)(=O)NCC(=O)N(C)Cc3ccccc3)cc2s1	i	0.93	/	103	-29	131	-1
CC1CN(C(=O)c2cc([N+](=O)[O-])cc([N+](=O)[O-])c2)CC(C)O1 (configuration not stated)	i	1	/	97	43	144	-2
O=C1NC[C@H](c2ccccc2)N(CCc2cccc3ccccc23)C1=O	i	0.93	/	82	/	/	/
COC(=O)c1ccc(NC(=O)CN(c2ccc(C)cc2)S(=O)(=O)c2c(C)n[nH]c2C)cc1	i	1	-0.5	60	/	/	0
Cn1c(=O)[nH]c(=O)c2c1nc(N1CCCC1)n2CC(O)COc1ccccc1 (configuration not stated)	i	0.85	-2.3	99	/	/	-1
O=C(Cn1cnc2cc([N+](=O)[O-])ccc2c1=O)NCCc1ccc(F)cc1	i	0.85	/	111	/	/	8
O=C(O)c1ccccc1SCc1cn2ccccc2n1	i	1.1	-0.9	104	-55	42	1
COc1ccc(NC(=O)N2CCn3c2nc2ccccc23)cc1	i	0.97	0.1	103	12	48	-6

Entries listed so far marked active in RGS16-Gao HTS:
| Molecule | HSV augment primary fold | GALR2 ag | RGS16-Gao HTS | PKD1 inh |
| --- | --- | --- | --- | --- |
| Cc1nc2c3ccccc3nc(NNC(=O)CCC(=O)NC(C)C)n2n1 | 1.3 | -0.1 | 4.1* | -3 |

Other records:
SMILES	HSV augment	HSV augment primary fold	GALR2 ag	RGS16-Gao HTS	Insulin prom inh	Insulin prom inh cell count	PKD1 inh
CCCCNC(=S)Nc1ccc2[nH]c(=O)[nH]c2c1	i	1.2	/	99	44	123	12
C=CCOC(=O)C(C#N)c1nc2ccccc2nc1N1CCC(C(=O)OCC)CC1 (configuration not stated)	i	1	-1.3	72	/	/	-5
O=C(c1cn(-c2ccccc2)nc1-c1ccccc1)N1CCN(c2ccccn2)CC1	i	0.94	/	93	-65	143	-2
CCN(CC(=O)Nc1ccc(C(=O)OC)cc1)Cc1ccccc1	i	0.77	/	97	-35	129	8
CCOC(=O)c1ccc(NC(=O)Cn2cccc2)cc1	i	0.99	-0.6	101	/	/	-6
Cc1ccc(C(=O)NNC(=O)CSc2nnc(-c3ccncc3)n2-c2ccc(C)cc2)cc1	i	0.89	-1.0	109	0	56	1
CN=C(NC)SC1CC(=O)N(c2ccccc2)C1=O (configuration not stated)	i	1.1	-1.6	101	22	100	0
CCC(C)N(NC(C)=O)c1nc(Cl)nc(NC(C)C)n1 (configuration not stated)	i	0.98	-0.3	104	12	145	-8
Cc1ccc(Nc2nc(COC(=O)COc3ccc(C=O)cc3)cs2)cc1	i	0.98	0.6	107	-8	97	-6
Cc1cccc(NC(=O)C2C3CCC4C(CCC32)C4(Cl)Cl)c1 (configuration not stated)	i	0.7	-1.0	65	3	124	-15
Cc1c(C(=O)O)c(=S)sn1CCOc1ccccc1	i	1	-1.9	103	25	154	-7

Single records, from the list above. Order of values: HSV augment | HSV augment primary fold | GALR2 ag | RGS16-Gao HTS | Insulin prom inh | Insulin prom inh cell count | PKD1 inh
Listed for Cc1c(C(=O)O)c(=S)sn1CCOc1ccccc1 = i | 1 | -1.9 | 103 | 25 | 154 | -7
Listed for Cc1ccc(C(=O)NNC(=O)CSc2nnc(-c3ccncc3)n2-c2ccc(C)cc2)cc1 = i | 0.89 | -1.0 | 109 | 0 | 56 | 1
